# Hsc70 ATP site = Hsc70 inhibitors, probe displacement, primary screen, biochemical, fluorescence polarization (AID 568). Hsc70 fluorescence polarization, probe displacement; higher % means a stronger effect; strong numbers were not always called active. displacement, % at 20 µM; hits with a dose series show IC50 in µM. 83,000 tested, under 10 active;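 active = displacement above 50% without optical interference and an IC50 on retest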;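 note: ATPase domain with a fluorescein-tagged ATP probe; 0% = vehicle and 100% = excess ADP; read after one hour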
# MT1-MMP reporter = inhibitors of MT1-MMP promoter transcription, cell-based, luciferase reporter, luminescence (AID 618); MT1-MMP promoter luciferase reporter cells, luminescence; calls from a first round at 10 µM; hits with a dose series show EC50 in µM; 87,000 tested, 0.62% active;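 active = over half of the reporter light lost at 10 µM or EC50 under 50 µM; inactive = the rest and hits that failed the dose series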;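 note: actives suppress MT1-MMP promoter-driven transcription so potencies describe inhibitors; HT1080 fibrosarcoma cells; overnight exposure; toxic or luciferase-blocking compounds were not removed from the actives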
# WNV NS2B-NS3 inh = inhibitors of WNV NS2B-NS3 protease, primary screen, biochemical, fluorogenic substrate. fluorogenic substrate Ex360/Em465; hits give low values. 65,000 tested, 0.18% active. z-score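 (tested at a level between 10 and 100 µM)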. Genome polyprotein (West Nile virus), P06935;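 active = z-score at -3 or under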;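 note: score is relative to mean and spread of the compound wells of a plate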
# Target sequence (P06935 1371-1501 limits assumed): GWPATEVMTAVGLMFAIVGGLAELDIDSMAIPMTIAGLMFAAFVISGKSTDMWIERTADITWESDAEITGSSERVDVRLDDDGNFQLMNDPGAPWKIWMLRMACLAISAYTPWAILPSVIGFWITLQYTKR
# Target sequence (P06935 1502-1679 limits assumed): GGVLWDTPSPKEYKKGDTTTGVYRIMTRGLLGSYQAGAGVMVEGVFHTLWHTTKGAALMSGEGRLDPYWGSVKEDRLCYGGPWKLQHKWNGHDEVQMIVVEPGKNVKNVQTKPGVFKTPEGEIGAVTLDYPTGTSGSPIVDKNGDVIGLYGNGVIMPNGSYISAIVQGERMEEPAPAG
# An asterisk follows results filed as active; i = inactive; nt = not tested or not shown.
SMILES,Hsc70 ATP site,MT1-MMP reporter,WNV NS2B-NS3 inh
CCCCCCC1C(C#N)=C(N)OC2=C1C(=O)CC(C)(C)C2 (stereo unspecified),-2.4%,i,-0.15
COc1ccc(N(C(=O)c2ccccc2OC)C2C=CS(=O)(=O)C2)c(OC)c1 (stereo unspecified),-9.7%,i,0.06
Cc1cc(C(=O)N2CCc3ccccc32)c2ccccc2n1,2.5%,i,-0.07
CCn1nnnc1SCC(=O)c1cccc(OC)c1,3.5%,i,nt
CCCn1c(=O)[nH]c(=O)c2c1nc(-c1ccc3c(c1)OCCO3)n2CCN1CCOCC1,2.1%,i,0.35
CCC1(CC)NC(=S)N(Nc2ccccc2)C1=O,2.4%,i,nt
O=C1c2ccccc2C(=O)C1c1ccncc1,-0.9%,i,-0.31
O=C(Nc1ccccc1)c1cccc(-c2nnc(-c3ccccc3)o2)c1,-1.9%,i,0.22
COc1ccc(CCNC(=O)c2ccc3c(=O)n(Cc4ccco4)c(=S)[nH]c3c2)cc1OC,-10%,i,0.75
COc1ccc(N2CCN(c3oc(COc4ccc(Cl)cc4)nc3C#N)CC2)cc1,-9.8%,i,-0.06
O=C1CSC(c2nn(-c3ccccc3)cc2-c2cc3ccccc3oc2=O)N1Cc1ccco1 (stereo unspecified),-0.5%,i,0.81
CN(CCCC(=O)NCc1ccco1)S(=O)(=O)c1ccccc1,9.2%,i,0.2
CCN(CC)C(=O)CSc1nnc(-c2ccccc2)n1N,-13%,i,-1.4
CCOC(=O)Nc1ccc(S(=O)(=O)Nn2cnnc2)cc1,4.3%,i,0.12
COC(=O)C1C(=O)NCC1c1ccccc1 (stereo unspecified),2.0%,i,0.8
O=C(NC(=O)N1CCN(c2ccc(F)cc2)CC1)c1ccccc1,-0.5%,i,nt
O=C1C2CCCN2C(c2ccc(Cl)cc2)N1c1nccs1 (stereo unspecified),0.9%,i,0.8
CCOC(=O)c1c(NC(=O)CN2CCCCC2)sc2c1CCN(C(=O)OCC)C2,4.0%,i,-1
CC(NC(=O)c1cccs1)C(c1cccs1)N1CCOCC1 (stereo unspecified),4.5%,i,-0.54
CCOC(=O)c1cnc(SCC(=O)Nc2ccccc2N2CCOCC2)nc1N,3.4%,i,1.6

# Reprinted from the part before: two entries, followed by the next part.
SMILES,Hsc70 ATP site,MT1-MMP reporter,WNV NS2B-NS3 inh
CC(NC(=O)c1cccs1)C(c1cccs1)N1CCOCC1 (stereo unspecified),4.5%,i,-0.54
CCOC(=O)c1cnc(SCC(=O)Nc2ccccc2N2CCOCC2)nc1N,3.4%,i,1.6
CCn1c(C)c(C(C)=O)c(N2CCN(c3ccccc3)CC2)nc1=S,1.6%,i,nt
O=C(O)CCCCCN1C(=O)CSC1=S,-2.1%,i,-0.94
CCCNS(=O)(=O)c1ccc(CCC(=O)N2CCOCC2)cc1,-0.6%,i,0.21
CC1/C(=N/O)CC(c2ccccc2)N(C)C1c1ccccc1 (stereo unspecified),3.6%,i,nt
CCOC(=O)N1CCC(N(CCCOC)C(=O)Nc2ccc(CC)cc2)CC1,-0.4%,i,0.53
Cc1c(CN2CCCCC2C)c(=O)n(-c2ccccc2)n1C (stereo unspecified),0.9%,i,0.3
Cc1ccc(C(=O)Nc2nccs2)cc1S(=O)(=O)N1CCCCC1,3.1%,i,-0.69
Cc1cc(C)nc(N(C#N)Cc2ccc(Br)cc2)n1,-1.1%,i,0.36
Cc1cc(=O)[nH]c(SCC2COC3(CCCCC3)O2)n1 (stereo unspecified),-1.9%,i,1.2
O=C(NCc1ccccc1)C1CC2CCCC(C1)C2=O (stereo unspecified),3.3%,i,-0.9
CCCC(CCC(=O)NC1CCCCC1)C(=O)O (stereo unspecified),-1.4%,i,-0.07
CC(O)c1ccc2c(c1)OCCOCCN(C)CCOCCO2 (stereo unspecified),0.0%,i,-0.89
COc1ccc2nc3sc(C(=O)N4CCN(C)CC4)cc3cc2c1,-4.5%,i,-0.17
CN(c1ccccc1)S(=O)(=O)c1ccc(C(=O)OCC(=O)N2CCOCC2)cc1,-0.8%,i,0.3
O=C(NCc1ccc2c(c1)OCO2)c1ccc(CS(=O)(=O)c2ccc(Br)cc2)o1,-4.1%,i,0.19
O=C1N(Cc2ccc3c(c2)OCO3)c2ccccc2C1(O)c1c[nH]c2ccccc12 (stereo unspecified),-8.8%,i,-1.1
CCCS(=O)(=O)N1CCCC(C(=O)NC(C)c2ccc3c(c2)OCCO3)C1 (stereo unspecified),-5.0%,i,0.08
O=C(CCCNS(=O)(=O)c1cccc2nsnc12)NC1CCCCC1,-4.7%,i,-0.57
COCc1cc(C)nc(Nc2ccccc2C)c1C#N,-0.3%,i,-0.54
Cc1cc(C)c2ccc(NN)nc2c1O,-1.4%,i,nt
CCOC(=O)C1(O)CSc2nc3sc(C(=O)O)c(C)c3c(=O)n21 (stereo unspecified),3.4%,i,0.21
O=C(Nc1nnc(-c2ccccc2SCc2ccccc2F)s1)Nc1ccccc1F,-0.9%,i,nt
COc1c(C(=O)N2CCCC2)ccc2ccccc12,0.0%,i,-0.54
O=C(NCc1ccc2c(c1)OCO2)C1CCCN(S(=O)(=O)c2cccnc2)C1 (stereo unspecified),0.7%,i,0.41
C/C(N)=C(/C#N)C(=O)CSc1ccc2c(c1)OCCO2,-2.3%,i,-0.7
Cc1ccc(C(=O)N/C(=C\c2cccs2)C(=O)N2CCCCCC2)cc1,-0.2%,i,nt
Cc1cccc(C)c1OCCCCCNCCO,4.5%,i,nt
CCn1c(=N)n(CCO)c2ccccc21,-6.0%,i,1.9
CCCC(=O)N(c1ccc2oc(=O)sc2c1)S(=O)(=O)c1ccccc1,2.9%,i,-0.81
CSc1cccc(NC(=O)c2cnccn2)c1,-1.2%,i,nt
COc1ccccc1CNC(=O)c1ccc(NS(C)(=O)=O)cc1,4.9%,i,-0.35
Cc1cc(S(=O)(=O)N2CCN(c3ncccn3)CC2)ccc1-n1cnnn1,1.0%,i,0.23
COc1ccccc1NC(=O)c1nnn(CC(=O)Nc2cccc(SC)c2)c1N,0.1%,i,-1.5
CN(C)CCNC(=O)Cc1c(C(=O)O)n(C)c2ccccc12,-4.7%,i,-0.69
Nc1ccc(C(=O)n2c3ccccc3c3ccccc32)cc1,1.5%,i,nt
COc1ccc2cc(C(c3nnnn3C3CCCCC3)N3CCCCCC3)c3nnnn3c2c1 (stereo unspecified),-0.7%,i,-0.71
COc1ccc2c(=O)c(N3C(=O)c4ccccc4C3=O)coc2c1,-0.2%,i,0.71
COc1ccccc1N1CCN(C(=O)c2ccc(CS(=O)(=O)c3ccccc3OC)o2)CC1,0.5%,i,-0.02
O=C(COc1ccc(Cl)cc1)Nc1nc(-c2cccs2)cs1,0.2%,i,-0.39
O=C(NCC1CCCO1)c1nc2c(nnn2Cc2ccccc2Cl)c(=O)[nH]1 (stereo unspecified),0.7%,i,nt

# Sorted by length of the SMILES (low to high): 3 of the compounds above.
SMILES,Hsc70 ATP site,MT1-MMP reporter,WNV NS2B-NS3 inh
COc1ccc2c(=O)c(N3C(=O)c4ccccc4C3=O)coc2c1,-0.2%,i,0.71
O=C(NCC1CCCO1)c1nc2c(nnn2Cc2ccccc2Cl)c(=O)[nH]1 (stereo unspecified),0.7%,i,nt
COc1ccc2cc(C(c3nnnn3C3CCCCC3)N3CCCCCC3)c3nnnn3c2c1 (stereo unspecified),-0.7%,i,-0.71

# Single values from the entries so far.
# `O=C1N(Cc2ccc3c(c2)OCO3)c2ccccc2C1(O)c1c[nH]c2ccccc12` (stereo unspecified) – Hsc70 ATP site = -8.8%
# `CCn1c(C)c(C(C)=O)c(N2CCN(c3ccccc3)CC2)nc1=S` – Hsc70 ATP site = 1.6%

# (further entries)
SMILES,Hsc70 ATP site,MT1-MMP reporter,WNV NS2B-NS3 inh
Cc1cccc(-n2nnc(C(=O)NCc3ccccn3)c2N)c1,3.7%,i,-0.99
Cc1nc(NC(=O)CCCC(=O)Nc2nc(C)c(C)s2)sc1C,8.2%,i,-0.43
COc1ccc(/C(N)=N/OC(=O)c2cccc([N+](=O)[O-])c2C)cc1OC,4.1%,i,nt
Cn1c(=O)[nH]c(=O)c2c1nc(N1CCN(Cc3ccccc3)CC1)n2CCSc1ncccn1,4.1%,i,-1.3
Cc1cccn2c(=O)c(/C=C(\C#N)S(=O)(=O)c3ccc(Cl)cc3)c(N3CCC(C(N)=O)CC3)nc12,-4.6%,i,nt
Cc1c(C)c2cc(Cl)c(O)c(CN3CCCC(C)C3)c2oc1=O (stereo unspecified),2.8%,i,0.91
Cc1occc1C(=O)NCCc1cccc(Cl)c1,-0.7%,i,nt
Cc1oc2nc(SCC(=O)Nc3ccc(S(N)(=O)=O)cc3)nc(NC(=O)c3ccccc3)c2c1C,-6.1%,i,nt
COCCCNC(=O)c1cc(OC)c(OC)c(OC)c1,1.2%,i,-1.6
c1csc(-c2cn3c(n2)SCC3)c1,5.0%,i,1.1
COC(=O)COc1nsnc1N1CCOCC1,3.1%,i,0.19
C=CCn1c(SCC(=O)Nc2sccc2C(N)=O)nc2ccc(Cl)cc2c1=O,-3.8%,i,nt
O=C(Nc1nnc(SCc2ccc(F)cc2)s1)c1ccco1,-4.4%,i,-0.63
COC(=O)c1cc(C)sc1NC(=O)CCCC(=O)O,-5.6%,i,-1.1
CCOC(=O)N1CCN(C(=O)Cn2cc3c(n2)CCCC3)CC1,1.0%,i,-1.1
COc1cc(NC(=O)c2ccc(C)cc2)c(OC)cc1NC(=O)CN1CCOCC1,-0.4%,i,-0.09
Cc1cc(NC(=O)Cn2nnc3sc4c(c3c2=O)CCCC4)no1,2.2%,i,-0.07
Cc1cc(NC(=O)Nc2ccc(F)cc2)no1,1.6%,i,nt
O=C(c1ccccc1)c1cccn1CC(=O)N1CCN(c2ccc(F)cc2)CC1,-0.7%,i,-1.1
O=C(Nc1ccc2oc(-c3ccccc3Cl)nc2c1)c1ncn[nH]1,0.8%,i,1.1
O=C(Nc1ccc(C2CCCCC2)cc1)C1CCCN(c2ncccn2)C1 (stereo unspecified),-4.7%,i,0.81
CC(=O)N1CCc2cc(S(=O)(=O)NC(C(=O)Nc3ccc4c(c3)OCCO4)C(C)C)ccc21 (stereo unspecified),-3.0%,i,-1.4
CC(=O)Nc1ccc(NC(=O)Cn2cc3c(n2)CCC(C)C3)cc1 (stereo unspecified),-8.3%,i,0.12
COc1ccc(NC(=O)c2cnc(C)cn2)cc1-n1cnnn1,-3.6%,i,0.005
CC(C)Nc1oc(Cc2cccc3ccccc23)nc1C#N,-12%,i,2.1
COCCCN1C(=O)c2ccc(C(=O)O)cc2C1=O,3.3%,i,nt
CCC(OC(=O)CCc1nc2ccccc2[nH]c1=O)C(=O)c1ccccc1 (stereo unspecified),4.1%,i,-0.19
CN(C(=O)C1CCCO1)c1nnc(-c2ccccn2)s1 (stereo unspecified),2.9%,i,0.13
COc1ccc(C2C(C#N)=C(N)SC(N)=C2C#N)cc1OC,-42%,i,-0.1
CCN1C(=O)C2(/C(=C(\O)c3ccc4c(c3)OCCO4)C(=O)C(=O)N2CCCOC)c2ccccc21 (stereo unspecified),-13%,i,-1
Cc1cc(C(C)(C)C)c(O)c(C)c1CC1=NCCN1,0.5%,i,-0.49
CCCCc1c(O)nc(SCC(=O)N2CCOCC2)n(-c2ccccc2C)c1=O,-4.0%,i,-0.86
CCCn1c(=N)n(CC(=O)c2cccs2)c2ccccc21,6.2%,i,0.23
Cc1oc(-c2ccc(F)cc2)cc1-c1nn2c(-c3ccoc3C)nnc2s1,-4.8%,i,-0.79
O=C1c2ccccc2S(=O)(=O)N1CCOc1ccc(F)cc1,2.5%,i,1.1
Cc1ccc(C)c(S(=O)(=O)NCc2ccc(C(=O)N3CCCCC3C)cc2)c1 (stereo unspecified),0.9%,i,nt
Cc1cccc(CCNC(=O)C2CCC(CNc3c(N4CCCC4)c(=O)c3=O)CC2)c1 (stereo unspecified),5.4%,i,-1.3
CN(C)C(=O)CCc1nc2sc3c(c2c(=O)[nH]1)CCCC3,1.5%,i,nt
COc1ccc(CNC(=O)C2CCCN(S(=O)(=O)c3cnc[nH]3)C2)cc1 (stereo unspecified),2.0%,i,-0.97
COC(=O)c1[nH]c2ccc(C)cc2c1NC(=O)CN1CCC(C)CC1,0.7%,i,-0.16
Cc1ccc(C(c2nnnn2Cc2cccs2)N2CCN(C(=O)c3ccco3)CC2)cc1 (stereo unspecified),1.0%,i,-0.9
S=c1[nH]nc(COc2ccc(Cl)cc2)o1,-5.6%,i,-0.63
S=C1NCCc2ccc(Cl)cc2C1c1ccccc1Cl (stereo unspecified),2.0%,i,nt
Nn1c(SCC(=O)Nc2ccc3c(c2)OCCO3)nnc1-c1ccccn1,-3.8%,i,-1.9
COc1ccc(NC(=O)CSc2nnc(-c3ccoc3C)n2CC2CCCO2)cc1 (stereo unspecified),5.5%,i,nt
CCN1C(=O)C(O)(C2COC(C)(C)CC2=O)c2ccccc21 (stereo unspecified),-7.0%,i,nt
O=C(Cc1ccc(S(=O)(=O)N2CCCC2)s1)Nc1nc2c(s1)CCCC2,-5.6%,i,-0.4

# An excerpt of these results, bar-delimited.
mol | Hsc70 ATP site | MT1-MMP reporter | WNV NS2B-NS3 inh
COc1ccc(NC(=O)CSc2nnc(-c3ccoc3C)n2CC2CCCO2)cc1 (stereo unspecified) | 5.5% | i | nt
Nn1c(SCC(=O)Nc2ccc3c(c2)OCCO3)nnc1-c1ccccn1 | -3.8% | i | -1.9
Cc1ccc(C(c2nnnn2Cc2cccs2)N2CCN(C(=O)c3ccco3)CC2)cc1 (stereo unspecified) | 1.0% | i | -0.9
O=C(Cc1ccc(S(=O)(=O)N2CCCC2)s1)Nc1nc2c(s1)CCCC2 | -5.6% | i | -0.4
S=C1NCCc2ccc(Cl)cc2C1c1ccccc1Cl (stereo unspecified) | 2.0% | i | nt

# Only part of the results is shown, so the mix of outcomes need not match the whole.
